# Assay outcomes as filed in PubChem.
# UCH37 inh: inhibitors of human UCH37 deubiquitinase, primary screen, biochemical, Ub-AMC cleavage, fluorescence. AID 588478, 2011. Ubiquitin carboxyl-terminal hydrolase isozyme L5 (Homo sapiens), Q9Y5K5. purified proteasome/UCH37. inhibition, % (concentration not given with the values). 330,000 tested, 0.33% active;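 active means mean of two replicates above 20%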;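 further: 0% = compound-free wells with enzyme and 100% = wells lacking proteasome; stock transfer was 100 nL into about 20 µL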
# Target sequence (Q9Y5K5 whole entry, looked up): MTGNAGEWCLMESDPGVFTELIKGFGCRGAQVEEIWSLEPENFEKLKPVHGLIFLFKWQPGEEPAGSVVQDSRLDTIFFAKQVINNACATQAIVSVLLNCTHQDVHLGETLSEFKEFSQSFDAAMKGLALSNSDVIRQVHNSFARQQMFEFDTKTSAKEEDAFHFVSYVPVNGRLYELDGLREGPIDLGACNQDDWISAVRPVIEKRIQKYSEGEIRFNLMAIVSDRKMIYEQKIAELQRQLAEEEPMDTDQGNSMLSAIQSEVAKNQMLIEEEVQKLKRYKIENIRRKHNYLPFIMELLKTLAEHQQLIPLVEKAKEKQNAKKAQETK
#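 Material: Human UCH37 enzyme supplied as purified proteasome complex | Schedule: 30 min compound-proteasome preincubation then 25 min substrate reaction, room temperature | Detection: AMC fluorescence from Ub-AMC cleavage, excitation 355 nm, emission 460 nm | Benchmarks: Wells without proteasome as full block, compound-free enzyme plus substrate as uninhibited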
# Ecoli growth: E. coli growth inhibition, primary screen, OD600 | AID 1053175, 2014 | 330,000 tested, 0.21% active | OD600 absorbance (no concentration beside the values) | Escherichia coli growth, 23 h; active compounds read low;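 active means OD600 absorbance below the run mean of sample wells minus 3.6 SD, in any replicate, cut at about 0.56 in these data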;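 further: stock transfer was 300 nL into about 60 µL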
# FGF22 binding: binders of human FGF22 protein, primary screen, FGF22 synaptogenesis inhibitor project, biophysical, thermal shift, single point; calls only at 9.99 µM; 340,000 tested, 1.5% active; AID 651658, 2012; Fibroblast growth factor 22 (Homo sapiens), Q9HCT0; recombinant FGF22 thermal shift, SYPRO orange fluorescence; percent of sucrose octasulfate shift, DMSO zero;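 active means melting point raised past a set limit in the mean and every replicate; inconclusive means no clear call; three in four hits are not shown here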
# rRNA inh HTS: reduced GFP signal of wild-type E. coli, primary screen, bacterial rRNA inhibitor project, GFP/RFP fluorescence, OD600, single point; AID 720706, 2013; 350,000 tested, 1.6% active; GFP signal change (wild-type ribosome), % (concentration not given with the values); E. coli WT GFP vs humanized-ribosome RFP mutants, 24 h; active compounds read low; DMSO median 0, no signal -100;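 active means significant combined selectivity score with lowered wild-type GFP, culture density cut under 30%, mutant RFP and density less affected; inactive means any of these conditions unmet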; further: one replicate is shown; some compounds called inactive have numbers as strong as hits
# ALR inh: inhibitors of human ALR sulfhydryl oxidase, primary screen, biochemical, H2O2 detection, HRP-luminol luminescence, single point | 290,000 tested, 3.8% active | FAD-linked sulfhydryl oxidase ALR (Homo sapiens), P55789 | inhibition, % (no concentration beside the values) | purified ALR, DTT oxidation | AID 485317, 2010;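 active means mean and each replicate at 75% or more; inconclusive means only one of the two met; inactive means neither met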;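 further: stock transfer was 7.5 nL into about 7.5 µL; 0% = neutral wells and 100% = wells with inactivated enzyme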
# Target sequence (P55789 whole entry, looked up): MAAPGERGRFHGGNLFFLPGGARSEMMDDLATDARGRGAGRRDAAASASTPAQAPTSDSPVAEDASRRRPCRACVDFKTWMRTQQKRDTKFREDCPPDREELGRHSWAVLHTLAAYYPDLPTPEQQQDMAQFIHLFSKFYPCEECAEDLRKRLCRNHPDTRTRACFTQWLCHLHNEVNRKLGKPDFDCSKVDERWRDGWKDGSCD
# B2AR ag: beta2AR agonists driving receptor internalization, primary screen, cell-based, FAP fluorogen, flow cytometry | Am2.2-beta2AR cells; reference of the scale not given here | response, % (concentration not given with the values) | 340,000 tested, 0.43% active;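 active means response above a set limit, near 3 SD of response in nonfluorescent compounds, cut at about 42% in these data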;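 further: stock transfer was 100 nL into about 11 µL; a reference agonist was the positive control; negative values mostly stem from fluorescent compounds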
# Target sequence (P07550 whole entry, looked up): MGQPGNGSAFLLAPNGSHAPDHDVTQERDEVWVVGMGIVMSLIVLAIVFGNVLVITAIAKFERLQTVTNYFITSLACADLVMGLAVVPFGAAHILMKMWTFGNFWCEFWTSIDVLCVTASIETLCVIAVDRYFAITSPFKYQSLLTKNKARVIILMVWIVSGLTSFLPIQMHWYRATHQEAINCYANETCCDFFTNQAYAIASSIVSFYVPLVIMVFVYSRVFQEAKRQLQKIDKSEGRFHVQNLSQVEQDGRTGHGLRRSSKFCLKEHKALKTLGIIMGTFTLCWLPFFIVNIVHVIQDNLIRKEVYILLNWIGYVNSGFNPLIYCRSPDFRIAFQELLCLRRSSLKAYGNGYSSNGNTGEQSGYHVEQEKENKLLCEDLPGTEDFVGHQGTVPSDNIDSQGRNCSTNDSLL
# HNF4A DNA FP: change in binding of human HNF4A to DNA, primary screen, biochemical, fluorescence polarization, FITC-DNA; 360,000 tested, 0.3% active; 1 h; activity change, % at 10 µM; in the data active means activity change above about 30%, passing the limit was not always enough;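 further: controls were the assay level and a saturating level of protein; the project sought stronger binding though the title names inhibitors; some compounds called inactive have numbers as strong as hits; positive values seem to mean higher polarization but the record does not say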
# rRNA inh HTS OD600: recorded beside rRNA inh HTS, whose call it bears; OD600 change, %; measured here: OD600 growth;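 optical density of the mix in the first replicate; 0 = DMSO median and -100 = no signal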
# rRNA inh HTS RFP: second read-out of rRNA inh HTS, no call of its own (marks repeat the call); RFP signal change, %; measured here: RFP humanized mutant strains;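 first replicate; 0 = DMSO median and -100 = no signal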
# * hit, by the source's call; i = inactive; u = inconclusive; x = no result given. These rows are one share of the data. The share of hits here may be higher or lower than overall.
structure	UCH37 inh	Ecoli growth	FGF22 binding	rRNA inh HTS	rRNA inh HTS OD600	rRNA inh HTS RFP	ALR inh	B2AR ag	HNF4A DNA FP
O=C(COc1cccc(-n2cnnn2)c1)Nc1ccc([N+](=O)[O-])cc1	-0.3	0.7	i	-1	-2	-1.4	x	-5	-1.1
Cc1ccc(Sc2cc(C(=O)NCCCN(C)C)c3ccccc3n2)cc1	3.8	0.67	i	15	10	5.9	-7	4	1.5
CCC(CC)C(=O)N(C)c1c(C)nc2c(OCc3ccccc3C)cccn12	x	x	i	-56	-75	-19	x	x	7.7
O=C(Nc1nc2cc3c(cc2s1)OCCO3)c1cccs1	-46	0.62	i	-8	7	8.2	5	-5	0.2
O=C(c1ccc(Cl)cc1)N1CCc2ccccc21	1.8	0.66	i	-2	-1	-1.9	-11	2	-3.4
N#Cc1ccsc1NC(=O)CSc1ncnc2ccccc12	7.7	0.79	x	x	x	x	98*	15	-11
Cn1ccc2c(-c3ccc(C(N)=O)cc3)cc3c(c21)C1CCC3C1 (stereo unspecified)	x	x	i	-48	-78	-13	x	x	-3.7
NC(=O)NC(CC(=O)OCC(=O)NC(=O)NCc1ccco1)c1ccc(Cl)cc1 (stereo unspecified)	-0.6	0.76	x	x	x	x	-10	0	2.9
COc1ccc(-n2c(=S)[nH]c3cc(C(=O)NCc4ccccc4OC)ccc3c2=O)c(OC)c1	-0.1	0.73	i	-5	-12	-0.4	x	9	1.4
CCn1cc(C(=O)N2CCN(C(=O)c3ccco3)CC2)c2cc(OC)c(OC)cc2c1=O	4.6	0.72	x	x	x	x	-5	6	0.1
CC(=O)Nc1ccc(NC(=O)c2cc(-n3cnnc3)ccc2Cl)cc1	x	x	i	-15	-13	1.5	x	-2	-2.0
Cc1ccn(C(=O)c2cc3cc(Cl)ccc3oc2=O)n1	-12	0.68	x	x	x	x	-3	-3	-1.9
Cc1nc2ccc(-c3nc4ccccc4o3)cc2[nH]1	-33	0.67	x	x	x	x	x	-9	2.0
O=C(Cn1cc(C(F)(F)F)cc(Cl)c1=O)NCc1ccc(Cl)cc1	1.5	0.67	i	7	9	-2.5	0	5	-4.0
CCSc1nnc(Cn2c(=O)sc3ccccc32)n1C	0.4	0.73	i	6	4	-0.8	x	-26	2.1
Cc1ccc2[nH]c(=O)c(CN(CCc3ccccc3)C(c3nnnn3Cc3ccco3)C(C)C)cc2c1 (stereo unspecified)	-1.8	0.71	i	6	-3	-0.5	-10	24	9.5
Cc1cc([N+](=O)[O-])nn1CC(=O)Nc1sc2c(c1C(N)=O)CCCC2	3.5	0.72	x	4	-1	0.5	-17	-8	-0.4
CCOC(=O)C(=O)Nc1ccc(Oc2ccccc2)cc1	1.7	0.67	i	6	3	0.5	0	-4	-2.9
CC(C)Cc1ccc(CN2CCCC(NC(=O)CCN3CCCO3)C2)cc1 (stereo unspecified)	3.6	0.61	i	4	7	1.2	-11	-7	1.4
CC(C)(C)C(=O)NC(=S)Nc1ccccc1N1CCCC1	4.5	0.71	i	-2	5	-2.6	98*	10	0.9
O=C(CSc1nc(NS(=O)(=O)c2ccccc2)cc(=O)[nH]1)Nc1ccc(Cl)cc1	6.9	0.67	x	9	14	2.3	x	0	-1.6
Clc1ccc(OCc2nc(-c3ccncc3)no2)c(Cl)c1	1.7	0.68	x	x	x	x	3	-2	0.0
O=C(Nc1ccccc1N1CCOCC1)c1cccc2ccccc12	x	x	i	-12	-3	-1.6	x	x	2.2
CN(C(=O)COC(=O)c1ccc(S(=O)(=O)N2CCCCCC2)cc1)c1ccccc1	x	x	i	-7	-11	5.0	x	x	3.2

# 2 of the compounds above, with values under each structure.
# Values run as follows: UCH37 inh	Ecoli growth	FGF22 binding	rRNA inh HTS	rRNA inh HTS OD600	rRNA inh HTS RFP	ALR inh	B2AR ag	HNF4A DNA FP
CCOC(=O)C(=O)Nc1ccc(Oc2ccccc2)cc1
 : 1.7	0.67	i	6	3	0.5	0	-4	-2.9
O=C(Nc1ccccc1N1CCOCC1)c1cccc2ccccc12
 : x	x	i	-12	-3	-1.6	x	x	2.2

# (further entries)
structure	UCH37 inh	Ecoli growth	FGF22 binding	rRNA inh HTS	rRNA inh HTS OD600	rRNA inh HTS RFP	ALR inh	B2AR ag	HNF4A DNA FP
CC(C)Cc1nc2sc3c(SCC(N)=O)ncnc3c2c2c1CCC2	1.0	0.64	i	11	5	2.0	x	-3	-2.9
CCOc1cc(/C=C2\C(=N)N3N=CSC3=NC2=O)ccc1OS(=O)(=O)c1ccccc1	x	x	i	-2	-8	1.5	54	14	3.8
Cc1ccc2cc3c(N)[nH]nc3nc2c1	7.4	0.67	i	3	6	1.4	u	6	-0.7
CCOC(=O)C(C(=O)OCC)C(=O)c1cccc2ccc3ccccc3c12	x	x	i	-12	-15	3.7	x	x	-1.6
COc1cc(/C=N/NC(=O)CC2(C)OCCO2)cc(Br)c1O	x	x	x	x	x	x	71	5	2.0
O=C(COC(=O)CC1CC2CCC1C2)NCc1ccc(Cl)cc1 (stereo unspecified)	-1.1	0.7	x	-21	-41	0.1	2	-3	2.7
Cc1cccc(Cn2ccc(-c3ccc(Cl)cc3)c(C#N)c2=O)c1	-14	0.7	x	x	x	x	3	-3	-3.0
CCc1ccc(N2CN(Cc3cccnc3)CNC2=S)cc1	6.1	0.65	i	x	x	x	-9	1	3.1
COCCNC(=O)C(c1ccco1)N(C(=O)Cn1nnc2ccccc21)c1ccccc1C (stereo unspecified)	1.9	0.7	x	x	x	x	-6	-13	0.7
COc1ccc(CNS(=O)(=O)c2ccc3c(c2)C(C)(C)C(=O)N3C)cc1	-0.1	0.64	i	9	-2	12	-13	8	-3.8
O=C(CN1CCN(S(=O)(=O)c2ccccc2)CC1)Nc1ccc2c(c1)CCC2	1.1	0.7	i	-16	-41	-13	-5	4	2.2
O=C(COC(=O)CCc1ccc(S(=O)(=O)N2CCOCC2)cc1)Nc1ccc(Cl)cn1	4.5	0.67	x	x	x	x	0	-6	-3.0
CCN1C(=O)[C@@H]2[C@@H](c3ccc(-c4ccccc4)cc3)N3CCCC[C@@]3(C(=O)OC)[C@@H]2C1=O	-1.0	x	i	8	11	8.5	-2	9	1.5
Cc1ccc(CCCNC(=O)C2CCC(=O)N(Cc3cccc(F)c3)C2)cc1 (stereo unspecified)	2.2	0.66	i	-3	-10	2.1	-10	-4	2.1
Cc1ccc(C(=O)COC(=O)c2ccc(-c3cnc4ccccc4n3)cc2)cc1C	-5.9	0.71	i	8	13	1.3	17	-3	-1.0
CCCOc1ccc2ccccc2c1/C=N/n1c(C)nnc1-n1nc(C)cc1C	x	x	x	x	x	x	-2	2	1.1

# An excerpt from above in order of molar mass, highest first.
structure	UCH37 inh	Ecoli growth	FGF22 binding	rRNA inh HTS	rRNA inh HTS OD600	rRNA inh HTS RFP	ALR inh	B2AR ag	HNF4A DNA FP
CCN1C(=O)[C@@H]2[C@@H](c3ccc(-c4ccccc4)cc3)N3CCCC[C@@]3(C(=O)OC)[C@@H]2C1=O	-1.0	x	i	8	11	8.5	-2	9	1.5
Cc1ccc(C(=O)COC(=O)c2ccc(-c3cnc4ccccc4n3)cc2)cc1C	-5.9	0.71	i	8	13	1.3	17	-3	-1.0
CCCOc1ccc2ccccc2c1/C=N/n1c(C)nnc1-n1nc(C)cc1C	x	x	x	x	x	x	-2	2	1.1

# Carrying on:
structure	UCH37 inh	Ecoli growth	FGF22 binding	rRNA inh HTS	rRNA inh HTS OD600	rRNA inh HTS RFP	ALR inh	B2AR ag	HNF4A DNA FP
CN1/C(=C\C(=O)CN2C(=O)NC3(CCCCCC3)C2=O)C(C)(C)c2ccccc21	-19	0.73	x	x	x	x	-2	-68	7.8
COc1ccc(C(C)=O)cc1CSc1nnc(SCc2cc(C(C)=O)ccc2OC)s1	2.8	0.66	i	8	18	7.7	-6	x	x
COc1cc2nc(NC(=O)c3ccco3)sc(=O)c2cc1OC	-15	0.66	i	11	5	-3.3	x	-12	-1.1
CCCCNC(=S)N1CCC(Cc2ccccc2)CC1	-0.6	0.67	i	-20	-29	-4.8	3	-1	1.4
COc1ccccc1OCC(=O)Nc1ccc(S(=O)(=O)Nc2nccs2)cc1	4.7	0.67	i	-5	-20	-1.8	3	-2	1.0
O=C1CCN(Cc2ccccc2)C=C1c1ccc(Br)cc1	x	x	i	-21	-44	-3.3	-4	-1	1.5
CCCCN1C[C@H](COC(=O)CCC)Oc2cccc(F)c2S1(=O)=O	x	x	i	-3	-9	-1.2	x	-3	-2.1
CCOc1cccc(C(=O)NC(=S)Nc2cccnc2)c1	2.2	0.67	x	x	x	x	7	-7	-1.3
COc1ccc(-n2c(-c3ccc(Br)cc3)n[nH]c2=S)cc1	4.3	0.71	i	-28	-56	11	62	0	6.2
CCn1cc([N+](=O)[O-])c(C(=O)Nc2nc(-c3ccc(C)cc3)c(C)s2)n1	x	x	i	15	17	-0.2	-12	-8	0.9

# Copied from the list:
# Cc1cccc(Cn2ccc(-c3ccc(Cl)cc3)c(C#N)c2=O)c1 @ B2AR ag = -3
# Cc1cc([N+](=O)[O-])nn1CC(=O)Nc1sc2c(c1C(N)=O)CCCC2 @ rRNA inh HTS = 4
# CC(C)Cc1nc2sc3c(SCC(N)=O)ncnc3c2c2c1CCC2 @ rRNA inh HTS OD600 = 5
